From PubChem BioAssay
ALR H2O2 inh: inhibitors of human ALR sulfhydryl oxidase, primary screen, biochemical, H2O2 detection, HRP-luminol luminescence, single point. FAD-linked sulfhydryl oxidase ALR (Homo sapiens), P55789. purified ALR, DTT oxidation. inhibition, % (test concentration not listed). 3.8% of 290,000 active;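 active = mean and each replicate at 75% or more; inconclusive = only one of the two met; inactive = neither met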;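 also: stock transfer was 7.5 nL into about 7.5 µL; 0% = neutral wells and 100% = wells with inactivated enzyme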
Target sequence (P55789 whole entry, looked up): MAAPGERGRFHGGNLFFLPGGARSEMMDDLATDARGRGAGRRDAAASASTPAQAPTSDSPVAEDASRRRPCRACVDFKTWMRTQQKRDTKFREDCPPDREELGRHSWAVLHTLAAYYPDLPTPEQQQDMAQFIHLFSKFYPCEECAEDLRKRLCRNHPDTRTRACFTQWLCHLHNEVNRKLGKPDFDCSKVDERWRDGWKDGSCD
FGF22 binding: binders of human FGF22 protein, primary screen, FGF22 synaptogenesis inhibitor project, biophysical, thermal shift, single point; Fibroblast growth factor 22 (Homo sapiens), Q9HCT0; recombinant FGF22 thermal shift, SYPRO orange fluorescence; percent of sucrose octasulfate shift, DMSO zero; 1.5% of 340,000 active; calls only at 9.99 µM;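 active = melting point raised past a set limit in the mean and every replicate; inconclusive = no clear call; three in four hits are not shown here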
Target sequence (Q9HCT0 whole entry, looked up): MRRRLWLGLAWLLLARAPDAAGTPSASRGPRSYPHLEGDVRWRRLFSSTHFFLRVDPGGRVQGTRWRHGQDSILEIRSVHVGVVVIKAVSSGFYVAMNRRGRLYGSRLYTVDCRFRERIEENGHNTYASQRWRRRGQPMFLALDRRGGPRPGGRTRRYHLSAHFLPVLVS
T cruzi inh: inhibitors of intracellular T. cruzi growth, primary screen, luminescence, NIH3T3 host cells; T. cruzi beta-gal in NIH3T3, 90 h; AID 1885, 2009; inhibition, % (concentration not given with the values); 1.4% of 300,000 active;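 active = mean inhibition across valid replicates above about 55%, limit read from the data; inconclusive = mean below that limit but half or more replicates reach it; inactive = mean below it, under half of replicates reach it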;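 also: signal also drops with host cell toxicity which is not excluded here; 0% = plate median of DMSO wells and 100% = zero luminescence signal; higher percent means less beta-gal luminescence so fewer parasites; stock transfer was 50 nL into about 50 µL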
Beta cell apopt: inhibitors of cytokine-induced beta cell apoptosis, primary screen, luminescence | protection from apoptosis, % (test concentration not listed) | INS-1E cytokine-induced death, ATP luminescence, 48 h; percent of positive-control rescue, neutral wells zero | AID 435005, 2010 | 0.8% of 300,000 active;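 active = all replicates at 75% or more, or half of them and the mean; inconclusive = half reach 75% but not the mean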;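 also: 0% = cytokine-treated negative control wells and 100% = positive control rescue; higher means more ATP so stronger rescue from cytokine killing; wells of about 40 µL received 100 nL stock; the first replicate is given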
Ecoli rRNA inh: reduced GFP signal of wild-type E. coli, primary screen, bacterial rRNA inhibitor project, GFP/RFP fluorescence, OD600, single point; E. coli WT GFP vs humanized-ribosome RFP mutants, 24 h; stronger effect = lower value; DMSO median 0, no signal -100; GFP signal change (wild-type ribosome), % (test concentration not listed); 1.6% of 350,000 active;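 active = significant combined selectivity score with lowered wild-type GFP, culture density cut under 30%, mutant RFP and density less affected; inactive = any of these conditions unmet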; also: one replicate is shown; some compounds called inactive have numbers as strong as hits
MLL AF4-AF9 inh: inhibitors of AF4 peptide binding to AF9, primary screen, biochemical, AlphaScreen, biotin-AF4 peptide, FLAG-AF9, single point | inhibition, % at 10 µM | 0.47% of 350,000 active | AID 651704, 2012;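 active = every replicate reaching a set inhibition limit, whatever the replicate mean, cut at about 25% in these data; inconclusive = mean inhibition reaches that limit but some replicates miss it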;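 also: 0% = plate neutral control median and 100% = total signal loss; the record names both 10 and 1 µM as test concentration; the first replicate is given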
Target sequence (P42568 whole entry, looked up): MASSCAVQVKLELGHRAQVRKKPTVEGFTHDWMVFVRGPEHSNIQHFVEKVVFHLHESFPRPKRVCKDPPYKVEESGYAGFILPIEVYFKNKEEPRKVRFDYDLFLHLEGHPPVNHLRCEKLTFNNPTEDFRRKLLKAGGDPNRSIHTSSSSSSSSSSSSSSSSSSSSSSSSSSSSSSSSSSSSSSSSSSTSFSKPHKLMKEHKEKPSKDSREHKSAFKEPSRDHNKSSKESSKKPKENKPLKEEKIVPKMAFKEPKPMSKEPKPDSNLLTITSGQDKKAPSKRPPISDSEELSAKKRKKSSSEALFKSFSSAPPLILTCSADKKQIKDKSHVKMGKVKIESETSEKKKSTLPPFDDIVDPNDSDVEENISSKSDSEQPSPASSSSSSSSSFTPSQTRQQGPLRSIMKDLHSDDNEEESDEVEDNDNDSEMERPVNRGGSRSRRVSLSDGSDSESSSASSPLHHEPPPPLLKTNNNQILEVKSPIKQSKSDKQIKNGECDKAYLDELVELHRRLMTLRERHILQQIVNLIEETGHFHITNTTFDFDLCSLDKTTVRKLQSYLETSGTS
RanGTP-Imp inh: inhibitors of RanGTP-importin-beta interaction, primary screen, biochemical, FRET, CFP-Ran, YFP-importin-beta, homogeneous; 1.1% of 300,000 active; cell-free CFP-Ran/YFP-importin-beta FRET ratio; inhibition, % (no concentration beside the values); AID 2216, 2009;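 active = most replicates above 15%; inconclusive = exactly half above 15%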;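 also: 0% = DMSO wells and 100% = Ran loaded with GDP instead of GTP; wells of about 40 µL received 100 nL stock; the first replicate is given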
Calb FLC: C. albicans growth inhibition with fluconazole, primary screen, CaCi-2 strain, Alamar Blue fluorescence | growth inhibition, % (test concentration not listed) | 0.57% of 300,000 active | C. albicans CaCi-2 (fluconazole-resistant clinical isolate) + fluconazole, 48 h;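 active = most replicates above 75%; inconclusive = exactly half above 75%; inactive = most below 75%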;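 also: all wells also contain fluconazole at 8 µg/ml as a sub-toxic cotreatment; 0% = median of DMSO wells and 100% = median of geldanamycin control wells; wells of about 8 µL received 7.5 nL stock; the first replicate is given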
Ecoli rRNA inh OD600: recorded beside Ecoli rRNA inh, whose call it bears; OD600 change, %; measured here: OD600 growth;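 optical density of the mix in the first replicate; 0 = DMSO median and -100 = no signal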
Ecoli rRNA inh RFP: also measured in Ecoli rRNA inh; calls as there; RFP signal change, %; measured here: RFP humanized mutant strains;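 first replicate; 0 = DMSO median and -100 = no signal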
* marks the source's active call; other numbers are inactive results; i = inactive; ? = inconclusive; . = not tested or not shown. Some of the compounds tested; count on the stated rates, not on these rows.

smiles,Beta cell apopt,Ecoli rRNA inh OD600,RanGTP-Imp inh,ALR H2O2 inh,FGF22 binding,Ecoli rRNA inh,T cruzi inh,Ecoli rRNA inh RFP,Calb FLC,MLL AF4-AF9 inh
O=C(/C=C/c1ccco1)Nc1cc(Cl)ccc1C(=O)O,-6,.,2.6,56,.,.,-11,.,27,.
CCOC(=O)C1=C(C)N=C2SCCC(=O)N2C1c1cccs1 (stereo not drawn),-1,.,1.9,-1,.,.,-10,.,22,.
CC(=O)CC1(OC(C)=O)C(=O)N(C)c2ccccc21 (stereo not drawn),1,11,-2.2,-19,i,14,-5,0.3,-3,-1.3
NC(=O)CN(c1ccc(Cl)cc1)S(=O)(=O)c1ccccc1,3,.,4.0,.,.,.,-11,.,-16,.
CCSc1ncccc1C(=O)N[C@@H](CCSC)C(=O)OC,-2,7,-4.6,-1,i,-1,1,-0.6,-12,.
COc1ccc(NC(C#N)c2ccc(OC)cc2)cc1 (stereo not drawn),-3,.,1.2,-2,.,.,1,.,-12,.
O=C(O)c1ccc(CSc2nnc(-c3ccco3)n2-c2ccccc2)cc1,-11,-26*,5.2,-6,i,-34*,1,-3.0*,1,0.1
O=C1CCCc2c1[nH]c1ccccc21,3,.,3.2,-1,.,.,-13,.,0,.
Clc1ccccc1-c1nnc2sc(-c3cccs3)nn12,-6,.,6.5,4,.,.,34,.,7,.
CCCN1CCN(C(=O)C2CCN(c3nnc(C)c4c(C)n(-c5ccc(C)cc5)nc34)CC2)CC1,5,-8,-4.2,-29,i,1,30,13,10,13
O=C(Nc1ccccc1Cl)Nc1ccccc1Cl,7,4,2.0,-8,i,10,-10,0.2,0,-15
COc1ccc(NC(=O)COc2ccccc2C(=O)NCC(c2ccccc2)N(C)C)cc1Cl (stereo not drawn),-3,-14,-0.3,-7,i,-2,16,11,0,9.7
O=C(CSc1ncnc2c1nnn2Cc1ccc(F)cc1)NC1CCCC1,-8,-4,-4.2,?,.,4,59*,-0.9,0,-1.9
Nc1nc(-c2ccccc2)c(-c2ccc([N+](=O)[O-])cc2)s1,93*,-4,-46,.,i,-1,-8,-3.9,0,20
COc1ccc(NC(=O)N2CCc3ccccc3C2)cc1,-2,1,1.5,-21,i,-5,4,1.0,-3,-0.7
CCOc1cc(/C=N\NC(=O)CN2CCOCC2)ccc1OCc1ccc(F)cc1,-2,.,1.7,0,.,.,-16,.,17,.
Cc1cccc(OCc2nnc3n2CCCCC3)c1,.,.,2.7,-1,.,.,-10,.,-10,.
O=C(Nc1c(F)cc(F)cc1Br)c1cc(-c2ccco2)on1,-4,.,?,-7,.,.,-7,.,21,.
COc1cccc(-c2c(C(=O)N/N=C/c3cccnc3)nnn2-c2nonc2N)c1,-3,7,-0.5,-15,i,5,-5,2.9,0,-3.1
COc1ccc(S(=O)(=O)N2Cc3ccccc3CC2C(=O)N2CCOCC2)cc1OC (stereo not drawn),0,.,0.9,.,.,.,12,.,-3,.
COc1cccc(NC(=S)N(C)C2CCN(C)CC2)c1,-4,8,-3.6,-25,i,10,7,-2.2,5,2.7
CC(=O)N1C(=O)N(C(C)=O)C2C1N(C(C)=O)C(=O)N2C(C)=O (stereo not drawn),.,.,?,2,.,.,-6,.,-2,.
COc1ccc(C(=O)c2coc3ccc(O)cc23)cc1,0,10,-4.7,-4,i,4,10,2.6,34,-5.1
COC(=O)C1=C(C)N(C)C(=O)NC1c1cc2c(cc1Br)OCO2 (stereo not drawn),7,-5,4.1,-1,i,-4,-12,-4.3,-3,-7.9
CC(C)(C)NC(=O)c1ccccc1NC(=O)C1CCCO1 (stereo not drawn),-8,14,-2.3,-10,i,7,-10,1.6,2,-4.9
FC(F)(F)c1ccccc1/C=N/n1c(C2CCCCC2)n[nH]c1=S,.,-6,3.7,.,i,-8,-7,-2.0,27,0.6
C=CCNS(=O)(=O)c1ccc(OCC(=O)OC)cc1,2,11,?,-6,i,-1,-9,-2.1,-3,-1.8
CCOc1ccc(CCNC(=O)COC(=O)/C=C/c2ccc(OC)c(OC)c2)cc1OCC,0,-7,?,-4,i,-16,7,3.5,23,5.0
Cc1ccc(S(=O)(=O)Nc2c3ccccc3nc(=O)n2-c2ccccc2)cc1,.,.,-4.1,5,.,.,6,.,8,.
COc1ccc(N2CCN(C(=O)CCCn3c(=O)[nH]c4ccsc4c3=O)CC2)cc1,1,-2,-8.5,65,i,6,0,1.1,1,-4.0
CCOC(=O)C1CCCN(C(=O)c2ccc(Cn3c(=S)[nH]c4cc(C(=O)OC)ccc4c3=O)cc2)C1 (stereo not drawn),5,5,2.5,19,.,10,18,-0.3,-3,-0.9
O=C(NC(=S)NCCSc1ccccc1)c1cccnc1,-7,.,2.2,18,i,.,-2,.,-10,-4.3
COc1ccc(NS(=O)(=O)c2cccc(NC(=O)c3ccc(S(=O)(=O)N4CCCCCC4)cc3)c2)cc1,100*,.,0.9,1,.,.,-5,.,-25,.
C/C(=N\NC(=S)NC1CCCCC1)c1ccc(OC(F)F)cc1OC(F)F,16,-31,?,-4,i,-22,42,0.7,12,1.1
CCOC(=O)c1ccc(NC(=S)N2CCN(CCNC3=CC(=O)CC(C)(C)C3)CC2)cc1,2,-10,-3.5,2,i,-13,5,-0.4,-19,2.4
COc1ccc(NC(=O)c2ccc(-n3cccn3)nc2)c(OC)c1,7,.,3.7,-8,.,.,0,.,-5,.
Cc1ccc(-c2nc3ccccc3c(=O)n2CCCn2ccnc2)cc1,2,.,?,-3,.,.,-18,.,-1,.
CCOc1ccc(-c2ccc(/C=C3/C(=N)N4C=CSC4=NC3=O)o2)c([N+](=O)[O-])c1,21,10,-5.3,2,i,11,2,14,4,-3.4
COc1cccc(-n2c(SCC(=O)NCc3cccs3)nc3ccccc3c2=O)c1,0,-10,1.2,-4,i,-4,-3,-6.8,-2,2.6
CC(C)N1CC(C(=O)Nc2nc3ccccc3s2)CC1=O (stereo not drawn),-9,.,1.8,-9,.,.,-1,.,-5,.
CN(CCc1ccccn1)C(=S)Nc1cccc(S(=O)(=O)N(C)C)c1,.,-3,3.8,2,i,7,-9,-0.9,5,0.3
COc1ccc(-n2c(=O)c3c4c(sc3n3cnnc23)CC(C)CC4)cc1 (stereo not drawn),-2,.,-4.8,-2,.,.,10,.,13,.
CC(=O)N1CCC2(CC1)C/C(=N\NC(=S)Nc1ccc(C)cc1)c1cc(O)ccc1O2,6,-5,8.0,-5,i,-14,7,-2.4,28,4.4
Cc1ccc(NC(=O)CS(=O)CC(=O)NCC2CCCO2)cc1 (stereo not drawn),.,.,10,-6,.,.,-11,.,-11,.
COCCn1c(-c2ccc(Cl)cc2)nc2c(c(=O)c3ccccc3n2C)c1=O,.,.,4.2,-4,.,.,15,.,-21,.

Looked up by structure from above:
smiles,Beta cell apopt,Ecoli rRNA inh OD600,RanGTP-Imp inh,ALR H2O2 inh,FGF22 binding,Ecoli rRNA inh,T cruzi inh,Ecoli rRNA inh RFP,Calb FLC,MLL AF4-AF9 inh
COCCn1c(-c2ccc(Cl)cc2)nc2c(c(=O)c3ccccc3n2C)c1=O,.,.,4.2,-4,.,.,15,.,-21,.
O=C(NC(=S)NCCSc1ccccc1)c1cccnc1,-7,.,2.2,18,i,.,-2,.,-10,-4.3
Cc1ccc(NC(=O)CS(=O)CC(=O)NCC2CCCO2)cc1 (stereo not drawn),.,.,10,-6,.,.,-11,.,-11,.
CN(CCc1ccccn1)C(=S)Nc1cccc(S(=O)(=O)N(C)C)c1,.,-3,3.8,2,i,7,-9,-0.9,5,0.3
CC(=O)N1CCC2(CC1)C/C(=N\NC(=S)Nc1ccc(C)cc1)c1cc(O)ccc1O2,6,-5,8.0,-5,i,-14,7,-2.4,28,4.4

Later entries:
smiles,Beta cell apopt,Ecoli rRNA inh OD600,RanGTP-Imp inh,ALR H2O2 inh,FGF22 binding,Ecoli rRNA inh,T cruzi inh,Ecoli rRNA inh RFP,Calb FLC,MLL AF4-AF9 inh
COc1ccccc1-c1noc(-c2ccccc2C(=O)NCC2CCCO2)n1 (stereo not drawn),5,1,-2.1,-2,i,11,2,7.6,.,-2.5
Cn1ncc(N=Cc2ccccc2)c1C(N)=O,-1,.,-2.2,0,.,.,-3,.,-7,.
CN1C(=O)CC(c2cn(Cc3ccccc3)c3ccccc23)C1=O (stereo not drawn),-4,6,2.8,5,i,3,-16,4.3,2,-2.2
Cc1cccc(NS(=O)(=O)c2csc(C(N)=O)c2)c1,-3,0,6.0,-1,i,3,4,1.5,-8,-2.4
CN(C(=O)CSc1n[nH]c(=O)[nH]c1=O)c1ccccc1,-2,-6,.,-4,i,-6,.,-1.5,.,-13
O=S(=O)(Nc1ccc(O)c2ccccc12)c1ccc(OC(F)(F)F)cc1,47,-14*,2.4,2,i,-29*,8,-9.1*,6,4.1
